# Source: PubChem
# NS1 function inh: inhibitors of influenza NS1 protein function. S. cerevisiae slowed by influenza A NS1, growth recovery by OD600. Potency, µM (titrated, usually from 46.1 µM), for the others: at the highest dose activity, positive = more growth. hit rate 0.4% among 270,000; active means well fitted rising curve with a large enough effect; inconclusive means small, poorly fitted or top-dose-only effect; inactive means no such curve, though single readings can be large or run the other way; further: nearly all actives have a fitted effect of over 50% in size
#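 A cell-based growth assay was used: compounds that relieve NS1-induced slow growth of budding yeast raise OD600. Assay medium was yeast nitrogen base with ammonium sulphate and -URA supplement, pH 6.0, with 2% galactose.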
# RE007 growth inh: less growth of the S. pombe RE007 Vpr strain | S. pombe RE007 Vpr strain, BacTiter-Glo ATP luminescence, 24 h; control for the full effect not named in the record | Potency, µM (titrated, usually from 92.2 µM), for inactives: at the top dose activity change, negative = less growth | hit rate 0.21% among 360,000; active = well fitted falling curve with a large enough effect; inconclusive = small, poorly fitted or top-dose-only effect; inactive = no such curve, though single readings can be large or run the other way;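 further: on the % scale 0 is the no-effect control and ±100 the full control effect; nearly all actives have a fitted effect of over 50% in size; the assay follows cell death caused by Vpr and the record does not say whether a fall means rescue or toxicity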
#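 Fission yeast RE007 carrying one integrated HIV-1 vpr copy, seeded at OD 0.01 in PMG+AL medium with 23 nL pinned compound. Grown 24 h at 30 degrees; viability read by BacTiter-Glo luminescence after 5 min.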
# Cruzain inh noDet: blocks cruzain activity in detergent-free assay; Potency, µM, for the others: max response, negative = inhibition, actives largely listed as inhibitors; hit rate 2.3% among 200,000; purified cruzain, Z-FR-AMC fluorescence, no detergent; P25779;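 further: plate controls were enzyme without inhibitor for no effect and buffer without enzyme for full effect; nearly all actives have a fitted effect of over 40% in size; top concentration of the series not given in the record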
# Target sequence (P25779 123-467 limits assumed): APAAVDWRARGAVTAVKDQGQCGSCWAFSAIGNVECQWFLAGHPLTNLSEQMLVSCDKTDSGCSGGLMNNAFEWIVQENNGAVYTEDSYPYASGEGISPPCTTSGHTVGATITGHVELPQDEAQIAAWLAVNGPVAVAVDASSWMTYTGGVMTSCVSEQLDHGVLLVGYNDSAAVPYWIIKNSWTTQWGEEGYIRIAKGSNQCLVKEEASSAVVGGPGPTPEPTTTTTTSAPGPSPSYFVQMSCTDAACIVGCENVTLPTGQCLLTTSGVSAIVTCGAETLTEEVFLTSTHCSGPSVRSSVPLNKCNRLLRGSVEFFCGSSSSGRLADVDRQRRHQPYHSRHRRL
#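 Detergent-free condition (0.00005% Triton X-100) in acetate buffer pH 5.5 with DTT. 1.5 nM enzyme and compound were pre-mixed 15 min, then 2 uM Z-FR-AMC substrate added; reaction progress from fluorescence change between first and third reads (60 s).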
# SARS PLP yeast: SARS-CoV PLP inhibition in yeast. S. cerevisiae expressing SARS-CoV PLpro, growth rescue; control for the full effect not named in the record. Potency, µM (titrated, usually from 32.9 µM), for the others: at the highest dose activity, positive = growth rescue. hit rate 0.19% among 330,000; active means well fitted rising curve with a large enough effect; inconclusive means small, poorly fitted or top-dose-only effect; inactive means no such curve, though single readings can be large or run the other way; further: 0% is about no effect; nearly all actives have a fitted effect of over 55% in size; growth read by luminescence after 48 h
# MARV entry inh: blocks Marburg virus binding to or entry into cells. Marburg virus pseudotyped entry inhibition, cell reporter; control for the full effect not named in the record; about a third of the inactives were read at about 46 µM. Potency, µM (titrated, usually from 37.8 µM), inactives show top-dose activity change, negative = inhibition, most hits filed as inhibitors. hit rate 1.8% among 300,000; active = well fitted inhibition curve with a large enough effect; inconclusive = small, poorly fitted or top-dose-only effect, or effect the other way; inactive = flat fitted curve, though single readings scatter; tested in HEK293 cells; about a fifth of its hits are not listed in these tables; further: on the % scale 0 is the no-effect control and ±100 the full control effect; luciferase read-out
# 2A StopGo: lowers the luciferase signal of an FMDV 2A StopGo reporter; human cells with a luciferase reporter of 2A StopGo recoding; control for the full effect not named in the record; Potency, µM (series often up to 57.9 µM), without a hit: at the highest dose signal change, negative = less light; hit rate 1.2% among 410,000; AID 1159524; active = well fitted falling curve with a large enough effect; inconclusive = small, poorly fitted or top-dose-only effect; inactive = no such curve, though single readings can be large or run the other way; tested in HEK293T cells; further: on the % scale 0 is the no-effect control and ±100 the full control effect; nearly all actives have a fitted effect of over 45% in size; luciferase light after 4 h
# Cruzain Triton: cruzain (T. cruzi) inhibition with detergent | AID 1478 | Potency, µM, without a hit: max response, negative = inhibition, most hits filed as inhibitors | purified cruzain, Z-FR-AMC fluorescence, 0.01% Triton | hit rate 0.43% among 200,000;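 further: plate controls were neutral wells for no effect and buffer without enzyme for full effect; nearly all actives have a fitted effect of over 40% in size; top concentration of the series not given in the record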
#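 15 min RT preincubation of 1.5 nM cruzain with compound, then 2 uM Z-FR-AMC added; kinetic AMC fluorescence, 60 s delta. Triton X-100 0.01%, pH 5.5.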
# LASV entry inh: Lassa virus entry inhibition. hit rate 1.2% among 300,000. AID 540256. Potency, µM (titrated, usually from 37.9 µM), for the others: at the top dose activity change, negative = inhibition, most hits filed as inhibitors. Lassa virus pseudotype entry inhibition, cell reporter; control for the full effect not named in the record; active means well fitted inhibition curve with a large enough effect; inconclusive means small, poorly fitted or top-dose-only effect, or effect the other way; inactive means flat fitted curve, though single readings scatter; tested in HEK293 cells; further: on the % scale 0 is the no-effect control and ±100 the full control effect; nearly all actives have a fitted effect of over 50% in size; luciferase read-out
# * hit, by the source's call; ? = inconclusive; . = no result given; & = joins results of further samples; [ ] = remark or other dose. Unless noted, the call rests on the fitted dose curve; in most records, active means well fitted curve in the direction sought with a large enough effect; inconclusive means small, poorly fitted or top-dose-only effect, or another doubt; inactive means no such curve, though single readings can be large; an effect the other way counts as inactive or inconclusive. Potency means the concentration at half of the fitted maximal effect.
Structure	NS1 function inh	RE007 growth inh	Cruzain inh noDet	SARS PLP yeast	MARV entry inh	2A StopGo	Cruzain Triton	LASV entry inh
O=C(O)CC(CNS(=O)(=O)c1ccccc1)c1ccccc1 (stereo not given)	3%	3%	0%	6%	-1%	-20%	-4.5%	.
Cc1ccc(O)c(C(=O)C=Cc2ccccc2)c1	.	-25%	.	.	?	35µM*	.	7%[46.1 µM]
O=C(Cc1ccc(S(=O)(=O)N2CCOCC2)s1)Nc1cc(Cl)ccc1Cl	.	-1%	.	0%	-7%[46.1 µM]	-8%	.	2%
C=CCC(=O)NC1CCCc2c1cnn2-c1cc(F)cc(F)c1 (stereo not given)	-21%	0%	.	3%	8%[46.1 µM]	10%	.	13%[46.1 µM]
C=CCNC(=O)O/N=C/c1csc([N+](=O)[O-])c1	-1%	-6%	.	0%	28%[46.1 µM]	0%	.	4%
CC(=O)Nc1cccc(NC(=O)c2ccc3[nH]c(C)c(C)c3c2)c1	8%	2%	.	0%	-5%[46.1 µM]	-5%	.	?
O=c1c2c3c(sc2n(CCN2CCCC2)c(=O)n1Cc1ccco1)CCCCC3	?	-7%	?	2%	?	-4%	5.2%	?
O=C(CN1CCOCC1)Nc1ncc(Cc2ccccc2Cl)s1	4%	6%	6%	-5%	2%	.	6.6%	1%
CCc1ccccc1NC(=O)CSc1nc2ccccc2nc1N1CCOCC1	7%	1%	.	-1%	.	?	.	.
CCOC(=O)c1c(C)[nH]c(C)c1S(=O)(=O)NCC(=O)Nc1cccc(SC)c1	.	.	1%	.	.	14%	-0.1%	11%[46.1 µM]
COC(=O)c1ccc2[nH]ccc2c1	5%	-5%	.	1%	.	8%	.	.
COc1ccc(Cl)cc1NC(=O)c1ocnc1C	-11%	-4%	-1%	-7%	-16%	-26%	-3.2%	3%
O=C(CSCc1c(F)cccc1Cl)Nc1ccccc1C(=O)N1CCOCC1	-3%	0%	.	0%	6%	0%	.	21%
CCOC(=O)C1CCN(/C=C2/C(=O)NC(=O)N(c3cccc(C)c3C)C2=O)CC1	11%	-2%	.	1%	.	-7%	.	.
Cc1cccc(C(=O)NN/C=C/C(=O)c2ccccc2)c1	26%	-2%	.	2%	?	2%	.	-2%
Cc1ccc(CN(C)C(=O)c2ccc(S(=O)(=O)N(C)c3ccccc3)cc2)o1	.	-7%	.	-10%	?	0%	.	?
O=C(CCCN1C(=O)[C@H]2CC=CC[C@H]2C1=O)NCc1nc(-c2ccccc2)no1	-16%	-10%	.	0%	.	-15%	.	.
CN(Cc1cccnc1)C(=O)c1cc(COc2ccc3c(c2)CCCC3)on1	-75%	-15%	.	-12%	?	-15%	.	?
CCNC(=O)CC1C(=O)N(c2ccc(F)cc2)C(=O)N1Cc1cccs1 (stereo not given)	.	-9%	.	1%	-15%[46.1 µM]	4%	.	18%[46.1 µM]
Cc1cccc(NC(=O)c2ccc(S(=O)(=O)N3CCCC3)cc2)c1C	-16%	-14%	.	1%	3%[46.1 µM]	0%	.	5%[46.1 µM]

Structure	NS1 function inh	RE007 growth inh	Cruzain inh noDet	SARS PLP yeast	MARV entry inh	2A StopGo	Cruzain Triton	LASV entry inh
Cc1ccc2oc3nc(C)c(C(=O)O)cc3c(=O)c2c1	3%	-19%	-3%	-7%	18%	23%	-3.0%	?
O=C(Nc1ccc2c(c1)OCCO2)C(=S)NCc1ccccc1	.	3%	.	-3%	14%	97%[activator]	.	25%
O=C(COc1ccccc1Cl)N1CCN(c2ccc([N+](=O)[O-])c(N3CCOCC3)c2)CC1	5%	1%	?	5%	?	.	-7.8%	-26%
CN1CC(=O)NC1=NC(=O)c1cc(F)c(F)cc1Cl	5%	7%	4%	1%	-4%	8%	-0.6%	10%
COc1ccc(NC(=O)N(CCC(C)C)C(C)c2ccccn2)c(OC)c1 (stereo not given)	-80%	-7%	5%	7%	.	-16%	-2.7%	.
Cc1ccc(CCSc2ccc(F)cc2)cn1	-1%	-10%	.	-1%	4%[46.1 µM]	1%	.	15%
COc1cccc(-n2c(SCC(=O)Nc3ccc(F)cc3F)nc3c([nH]c4ccccc43)c2=O)c1	.	.	-5%	.	.	-6%	-1.3%	-16%[46.1 µM]
COc1ccccc1OCCNC(=O)c1ccc(C)c(S(=O)(=O)N2CCOCC2)c1	.	-8%	.	9%	0%	8%	.	-7%
COc1cccc(N(CC(=O)N2CCCCCC2)S(C)(=O)=O)c1	12%	1%	.	9%	.	-10%	.	.
Cc1ccc(N(C(C)C(=O)Nc2ccc(S(=O)(=O)N3CCOCC3)cc2)S(C)(=O)=O)cc1 (stereo not given)	-69%	3%	?	8%	2%&2%	0%	-2.3%	?
Cc1cc(C)cc(N(C(=O)C(F)(F)F)C(C(=O)NC2CCCCC2)c2cccs2)c1 (stereo not given)	7%	0%	?	3%	-19%	.	-2.3%	-15%
O=C(O)c1cc(=O)c2cc(Cl)ccc2o1	22%	-3%	2%	.	-12%	-5%	5.0%	13%
CCOC(=O)c1cccc(NC(=O)CSc2nnc(-c3ccoc3C)n2CCOC)c1	-5%	20%	6%	5%	3%	-13%	5.2%	2%
CCN(CC(=O)Nc1ccccc1C(F)(F)F)C(=O)CCS(=O)(=O)c1ccc(C)cc1	.	-15%	.	-3%	-10%	?	.	-4%
CC(=O)NC12CC3CC(C1)CC(C(=O)Nc1nc4ccc(S(C)(=O)=O)cc4s1)(C3)C2	2%	-2%	.	.	?	-6%	.	-2%
COc1cccc(N2CC(C(=O)Nc3ccc(C(=O)OC(C)C)cc3)CC2=O)c1 (stereo not given)	-33%	2%	?	-2%	1%	-5%	-2.3%	12%
CC1CC(C)CN(c2cc(N(C)CCO)c([N+](=O)[O-])c3nonc23)C1 (stereo not given)	.	-10%	.	3%	1%	0%	.	?
Cc1ccc(N2C(=O)C3C4CC(=O)C(c5ccccc54)C3C2=O)cc1 (stereo not given)	-16%	-8%	-1%	-3%	11%	13%	0.2%	-2%
Cc1nc([N+](=O)[O-])cn1CCC#N	0%	7%	.	-1%	23%[46.1 µM]	2%	.	20%[46.1 µM]
OCCC1CN(Cc2cccn2-c2ncccn2)CCN1Cc1ccccc1 (stereo not given)	-4%	-1%	.	0%	-15%[46.1 µM]	-19%	.	1%[46.1 µM]

Structure	NS1 function inh	RE007 growth inh	Cruzain inh noDet	SARS PLP yeast	MARV entry inh	2A StopGo	Cruzain Triton	LASV entry inh
CCC(C)NC(=O)CN(c1cc(Cl)ccc1OC)S(C)(=O)=O (stereo not given)	-4%	?	-6%	17%	4%	10%	3.6%	2%
COc1cc2ccccc2nn1	-3%	-1%	.	0%	-7%[46.1 µM]	-11%	.	.
CCOC(=O)CNC(=O)CSc1nnc(Cn2c(=O)sc3ccccc32)n1-c1ccccc1C	-3%	-10%	?	5%	-1%	-10%	1.9%	-7%
COC(=O)c1ccc(C2C(C(=O)c3ccco3)=C(O)C(=O)N2c2cc(C)on2)cc1 (stereo not given)	9%	-11%	.	0%	.	0%	.	.
CCOC(=O)c1c(NC(=O)CSc2nc3cc(Cl)ccc3s2)sc(C(C)=O)c1C	15%	.	16µM*	-1%	25%	.	-6.1%	10%
Cc1ccc(C2CC(=O)N(Cc3ccccc3F)c3c2c(C)nn3-c2nc(C)cc(C)n2)cc1 (stereo not given)	.	.	?	.	-5%[46.1 µM]	-9%	-3.9%	-17%[46.1 µM]
CCOC(=O)C1=C(C)N=C2SC(C)C(=O)N2C1c1ccc(C(=O)OC)cc1 (stereo not given)	7.9µM*	0%	1%	0%	13%&-6%	-15%	-3.2%	24%
CCc1nnc(NC(=O)C2CCCN(c3nc(C)cc(C)n3)C2)s1 (stereo not given)	1%	-7%	-14%	-2%	2%	-7%	1.3%	4%
Cc1onc(-c2ccccc2Cl)c1C(=O)NCCN1CCOCC1	-1%	-3%	-11%	-11%	0%[46.1 µM]	-6%	-0.9%	11%
CCOC(=O)c1sc(N2C(=O)C(O)=C(C(=O)c3ccco3)C2c2cccc([N+](=O)[O-])c2)nc1C (stereo not given)	?	4%	.	?	7%[46.1 µM]	-8%	.	4%[46.1 µM]
COc1ccccc1N1Cc2ccc(OC)c(OC)c2C1=O	-5%	-16%	.	1%	?	9%	.	14%[46.1 µM]
COCC(C)NC(=O)Cc1ccc(Cl)cc1 (stereo not given)	5%	18%	.	-1%	-17%[46.1 µM]	-13%	.	9%
Cc1scc(C(=O)NCc2ccco2)c1-c1ccccc1	?	0%	9%	-2%	-2%	?	-3.1%	-9%
c1cnc(-c2noc(CN3CCN(C4CCCC4)CC3)n2)cn1	5%	5%	.	0%	14%[46.1 µM]	-9%	.	17%[46.1 µM]
CC1(O)c2ccccc2C(=O)N1Cc1ccccc1 (stereo not given)	1%	-14%	9%	-7%	1%	1%	4.3%	-6%
O=C(CN(C(=O)CNS(=O)(=O)c1ccccc1)c1ccc(F)cc1)NCc1ccco1	4%	-17%	.	-1%	9%[46.1 µM]	-13%	.	-13%
CC1CCN(C(=O)CSc2ccc(-c3ccc4c(c3)OCCO4)nn2)CC1	-2%	-13%	.	-2%	7%[46.1 µM]	3%	.	0%
CC(=O)Nc1ccc(S(=O)(=O)Nc2cccc3cccnc23)cc1	-12%	6%	.	-2%	-9%&-9%[46.1 µM]	-12%	.	.
COCCOC(=O)C1=C(C)NC(=S)NC1c1cccs1 (stereo not given)	6%	4%	.	0%	7%[46.1 µM]	-13%	.	4%[46.1 µM]
COc1ccc(/C=C2/SC(c3ccc(C)cc3)=NC2=O)cc1OC	27%	1%	?	2%	-4%	-12%	-5.2%	2%
Cc1cc(C)c(NC(=O)Cn2c(=O)n(CCCCC(=O)NCc3ccccc3Cl)c(=O)c3ccccc32)c(C)c1	.	.	-14%	.	-6%[46.1 µM]	-24%	-1.8%	24%[46.1 µM]
CCOc1cc(C2C3=C(CCCC3=O)OC3=C2C(=O)CCC3)cc([N+](=O)[O-])c1O	0%	-9%	.	12%	-8%[46.1 µM]	-20%	.	9%[46.1 µM]

# This is a random part of the collection; overall some 4.7% were active at least once.
